# E coli growth: E. coli growth inhibition | Escherichia coli growth, OD600, 23 h; active compounds read low | OD600 absorbance (concentration not given with the values) | 330,000 compounds, 0.21% hits | AID 1053175;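 active means OD600 absorbance below the run mean of sample wells minus 3.6 SD, in any replicate, cut at about 0.56 in these data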;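 further: stock transfer was 300 nL into about 60 µL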
# LANA-H2B inh: blocks KSHV LANA binding to histone H2A/H2B | Q9QR71 | cell-free LANA-H2A/H2B peptide, fluorescence polarization | inhibition, % (test concentration not listed) | 320,000 compounds, 0.6% hits | AID 2629; in the data active means inhibition mostly above about 10%, no sharp cut-off; inactive means mostly below about 6.7%;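 further: stock transfer was 7.5 nL into about 10 µL; 0% = median of vehicle wells and 100% = median of positive control wells; one replicate is shown; the record names a cut of 25% in any replicate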
# Target sequence (Q9QR71 whole entry, looked up): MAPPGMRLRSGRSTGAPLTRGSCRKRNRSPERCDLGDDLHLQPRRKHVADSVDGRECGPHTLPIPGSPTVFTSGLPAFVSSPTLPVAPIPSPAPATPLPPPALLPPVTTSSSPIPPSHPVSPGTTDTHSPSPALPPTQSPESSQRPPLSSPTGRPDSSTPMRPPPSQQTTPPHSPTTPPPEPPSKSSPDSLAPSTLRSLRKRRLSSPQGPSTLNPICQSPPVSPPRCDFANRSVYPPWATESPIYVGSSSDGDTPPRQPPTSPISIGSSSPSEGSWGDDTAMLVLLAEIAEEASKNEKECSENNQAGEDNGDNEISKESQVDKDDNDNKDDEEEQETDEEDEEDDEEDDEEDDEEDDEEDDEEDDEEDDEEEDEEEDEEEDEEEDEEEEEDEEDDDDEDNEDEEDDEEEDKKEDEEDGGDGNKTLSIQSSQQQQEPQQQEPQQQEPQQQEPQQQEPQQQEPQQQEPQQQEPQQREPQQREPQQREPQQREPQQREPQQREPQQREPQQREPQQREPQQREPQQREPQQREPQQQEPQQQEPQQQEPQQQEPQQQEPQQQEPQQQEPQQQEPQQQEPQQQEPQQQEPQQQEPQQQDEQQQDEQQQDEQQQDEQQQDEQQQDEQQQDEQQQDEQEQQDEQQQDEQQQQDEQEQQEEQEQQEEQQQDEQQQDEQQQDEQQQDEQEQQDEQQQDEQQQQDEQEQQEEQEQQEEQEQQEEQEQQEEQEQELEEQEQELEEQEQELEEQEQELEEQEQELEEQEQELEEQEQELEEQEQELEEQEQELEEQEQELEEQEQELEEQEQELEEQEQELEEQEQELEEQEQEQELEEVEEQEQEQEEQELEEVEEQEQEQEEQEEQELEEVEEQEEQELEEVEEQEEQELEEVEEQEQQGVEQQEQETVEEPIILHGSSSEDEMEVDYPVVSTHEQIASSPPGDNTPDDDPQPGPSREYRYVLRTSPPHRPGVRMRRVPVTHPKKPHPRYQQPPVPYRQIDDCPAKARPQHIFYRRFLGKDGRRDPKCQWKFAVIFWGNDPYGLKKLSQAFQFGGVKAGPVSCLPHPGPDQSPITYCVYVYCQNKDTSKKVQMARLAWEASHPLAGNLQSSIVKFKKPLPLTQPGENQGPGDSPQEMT
# Vif A3G: HIV-1 Vif–A3G interaction blockers – biochemical, TR-FRET, GST-Vif 1-94, biotin-A3G peptide, dose response retest, primary screen (AID 1117319). one-dose inhibition, %; IC50 in µM for titrated hits. TR-FRET GST-Vif / biotin-A3G peptide binding; higher % means a stronger effect; test concentration not given here; strong numbers were not always called active. 260,000 compounds, 0.57% hits;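 active means above the screen mean plus three standard deviations and confirmed in dose response; inconclusive means results disagree or hit not tested in dose response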;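 further: Vif residues 1-94 fused to GST binding biotinylated APOBEC3G peptide 110-148; 0% = full assay without inhibitor and 100% = GST in place of GST-Vif; retest series ran down from 100 µM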
# A1 inh: inhibitors of the anti-apoptotic protein A1, read as caspase activation; MEF A1-2A-BIM cells, Caspase-Glo 3/7 luminescence, 3 h; percent of clofoctol response, vehicle zero; caspase activation, % (no concentration beside the values); 330,000 compounds, 0.066% hits; AID 2462;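 active means over half of replicate activation scores above 10%, or exactly half above 10 with the replicate mean above 10; inconclusive means replicate mean below 10 yet half the replicates above 10; inactive means over half of replicates below 10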;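 further: wells of about 30 µL received 50 nL stock; many hits fall short of the cut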
# HNF4A DNA FP: change in binding of human HNF4 alpha to DNA; HNF4a-FITC DNA binding, fluorescence polarization, 1 h; 360,000 compounds, 0.3% hits; activity change, % at 10 µM; in the data active means activity change above about 30%, passing the limit was not always enough;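 further: controls were the assay level and a saturating level of protein; the project sought stronger binding though the title names inhibitors; some compounds called inactive have numbers as strong as hits; positive values seem to mean higher polarization but the record does not say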
# UCH37 inh: human UCH37 deubiquitinating enzyme inhibition; inhibition, % (concentration not given with the values); purified proteasome/UCH37, Ub-AMC cleavage fluorescence; 330,000 compounds, 0.33% hits; AID 588478; Q9Y5K5;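 active means mean of two replicates above 20%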;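 further: 0% = compound-free wells with enzyme and 100% = wells lacking proteasome; stock transfer was 100 nL into about 20 µL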
#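 system = Proteasome-associated human UCH37 deubiquitinase | amount = 0.15 nM proteasome as dispensed | medium = pH 7.4 Tris-HCl (50 mM) with ovalbumin, ATP-MgCl2, DTT | incubation = 30 min preincubation with enzyme, 25 min cleavage at room temperature | detection = AMC fluorescence 355/460 nm | read-out basis = percent inhibition | controls = no-proteasome and no-compound wells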
# Beta2AR agonist: activates human beta-2 adrenergic receptor causing internalization; 340,000 compounds, 0.43% hits; AID 504454; response, % (test concentration not listed); Am2.2-beta2AR cells, FAP receptor internalization, flow cytometry; reference of the scale not given here; P07550;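 active means response above a set limit, near 3 SD of response in nonfluorescent compounds, cut at about 42% in these data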;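 further: stock transfer was 100 nL into about 11 µL; a reference agonist was the positive control; negative values mostly stem from fluorescent compounds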
# Numbers without * were called inactive; ? = inconclusive; . = not tested or not shown. Outcome played no part in choosing rows; 2.1% or so of the library scored in one or more.
SMILES,E coli growth,LANA-H2B inh,Vif A3G,A1 inh,HNF4A DNA FP,UCH37 inh,Beta2AR agonist
CN1CCN(c2ccc(S(=O)(=O)N3CCCCC3)cc2NC(=O)c2ccc(F)cc2F)CC1,.,.,?,0.1,0.5,.,0
Cc1ccc2nc(-c3ccccc3)c(CC(=O)O)c(C(=O)O)c2c1,0.67,-1.4,4%,-2.1,2.5,3.0,1
NC(=O)c1c(NC(=O)c2ccccc2)sc2c1CCN(Cc1ccccc1)C2,0.79,6.7,.,0.0,66,-205,-4
COc1cccc(C(=O)NN2CC(O)=C(c3nc4ccccc4s3)C2=N)c1,0.74,-3.6,17%,-0.6,1.4,5.6,13
Cc1cccc(N2CCN(C(=O)CSc3ccc4c(c3)OCCO4)CC2)c1C,0.72,3.3,5%,-1.2,1.2,0.4,-4
Fc1ccc(CSc2ccc(-c3ccc4c(c3)OCO4)nn2)cc1,0.71,1.4,.,0.0,5.8,-18,5
Cc1cccc(NC(=O)COC(=O)c2cc(C)oc2C)c1,0.72,1.3,22%,?,2.1,-0.5,1
O=c1[nH]c(SCCOc2ccccc2)nc2ccccc12,0.7,-0.7,-39%,1.3,1.8,5.0,3
CCOC(=O)C1=C(c2ccccc2)NC(=O)N(C(C)=O)C1c1cccc([N+](=O)[O-])c1 (stereo unspecified),0.7,0.5,.,-0.3,0.5,4.9,2
Cc1ccc2oc(-c3cccc(NC(=O)c4ccc(Br)o4)c3)nc2c1,0.76,1.4,-18%,-0.2,3.1,-5.9,17
O=C1C(=O)N(Cc2cccnc2)C(c2cccc([N+](=O)[O-])c2)/C1=C(\O)c1ccc2c(c1)OCCO2 (stereo unspecified),0.68,1.3,.,0.2,3.4,17,-8
CC(=O)Nc1ccc(N2CCCC2)cc1,0.62,-3.6,30%,-0.8,7.0,5.9,-3
CC1CC1C(=O)Nc1nc(-c2ccccc2)cs1 (stereo unspecified),0.68,-0.8,2%,-1.2,-0.8,6.2,-6
Cc1nn(C)cc1/C=N/NC(=S)Nc1ccccc1,.,1.4,1%,0.2,1.6,.,0
CN(C(=O)Cc1csc(-c2ccccc2)n1)c1c(N)n(Cc2ccccc2)c(=O)[nH]c1=O,0.69,2.1,2%,-0.5,3.4,0.5,-2
O=C(NCCN1CCOCC1)c1cc(Sc2ccc(F)cc2F)nc2ccccc12,0.71,1.1,6%,0.1,5.7,4.5,-7
O=C(O)c1cc2cc(S(=O)(=O)O)ccc2cc1O,0.67,.,27%,.,3.9,-1.5,5
COc1ccc(CCn2c(-c3cc([N+](=O)[O-])cc([N+](=O)[O-])c3)nc3nc4ccccc4nc32)cc1OC,0.66,3.1,.,2.0,2.9,5.6,0
Cc1ccc(NCC(=O)N/N=C/c2cc(O)ccc2[N+](=O)[O-])cc1,.,-0.1,.,1.9,-0.1,.,-4
Cc1ccc2c(c1)NC(=O)C(CC(=O)NCCCN1CCN(c3cc(C)ccc3C)CC1)O2 (stereo unspecified),0.72,-1.9,1%,0.4,0.2,4.4,0
Cc1[nH]c2ccccc2c1C(=O)C(=O)NCc1ccco1,0.7,-14,.,0.2,-0.2,3.2,-7
Cc1ccc(S(=O)(=O)c2cc3c(=O)n4cccc(C)c4nc3n(CCc3ccccc3)c2=N)cc1C,0.73,.,.,.,-2.0,-2.0,4
CCOC(=O)N1CCN(c2ncnc3c2cnn3-c2ccc(Cl)cc2)CC1,0.67,.,-2%,.,.,0.5,.
O=c1[nH]c2ccccc2nc1Cc1ccc([N+](=O)[O-])cc1,0.72,-2.1,.,-0.6,-1.1,4.5,-9
Cc1ccc2c(c1)c1c(n2C)C(C(N)=O)CCC1 (stereo unspecified),0.71,6.2,?,0.0,2.3,3.1,-8
COc1ccc(N(CC(=O)NCCSC(C)(C)C)S(C)(=O)=O)c(OC)c1,0.72,1.0,-2%,-0.3,-0.4,0.5,-3
Cc1ccc(C(=O)NCC(=O)NCc2cc(=O)n(C)c(=O)n2C)cc1C,0.65,-0.4,.,0.1,1.2,3.0,1
Cn1c(N2CCN(S(=O)(=O)c3ccc(Cl)cc3)CC2)nc2ccccc21,0.72,-0.7,.,0.6,-0.2,4.3,-1
COc1ccc(COCC(O)CN2CCN(S(=O)(=O)c3c(F)cccc3F)CC2)cc1OC (stereo unspecified),0.71,.,.,.,-2.1,2.7,2
CCCN(CCC)c1nc(Cl)nc(NCc2ccco2)n1,0.67,-3.1,-1%,0.4,-1.2,2.3,-2
O=C(NN=C1CCCCCCCCCCC1)c1cccnc1,0.7,-4.6,2%,0.2,2.9,5.1,1
CCOC(=O)C1CCN(C(=O)c2ccccc2NS(=O)(=O)c2ccc(C)cc2)CC1,0.72,11,.,-0.1,-1.3,2.4,13
COc1cc2nc(C3CC3)n(NC(=O)c3ccc(F)cc3)c(=O)c2cc1OC,0.68,-6.7,?,0.0,-2.6,4.0,-7
O=C(C1CC1c1ccccc1)N1CCOCC1 (stereo unspecified),0.68,4.6,8%,0.4,4.2,1.1,6
CC(C)C(OC(=O)c1ccccc1)c1nccc2ccccc12 (stereo unspecified),0.69,2.8,-12%,2.2,0.5,3.1,18
CC(=O)Oc1ccc(N(C(C)=O)S(=O)(=O)c2ccc3ccccc3c2)cc1,0.68,-1.8,2%,-0.8,-0.2,1.7,0
COc1ccc(CCn2nnnc2C(C(C)C)N2CCC(C(N)=O)CC2)cc1OC (stereo unspecified),0.75,4.3,5%,0.4,0.8,0.2,0
CCN(CC)C(=O)Cc1c(OC)ccc2cc(Br)ccc12,0.69,0.1,1%,0.7,2.8,2.1,1
O=C(Nc1ccc(S(=O)(=O)N2CCOCC2)cc1)C1CCN(S(=O)(=O)c2ccc(Cl)cc2)CC1,0.68,.,.,.,1.7,3.0,9
CCOC(=O)c1c(NC(=O)c2ccn(CC)n2)sc2c1CCCC2,0.72,3.3,8%,-0.1,1.2,-99,7
COc1ccccc1/C=C/C(=O)Nc1ccc(S(=O)(=O)Nc2cc(C)on2)cc1,0.64,1.9,.,-0.9,2.0,4.8,0
COC(=O)c1c(NC(=O)Cc2ccccc2)sc2c1CCN(C(C)C)C2,0.65,2.1,.,0.3,4.4,0.5,-13
O=c1oc2cc(OCc3ccc([N+](=O)[O-])cc3)ccc2c2c1CCCC2,0.78,0.7,0%,-1.5,1.8,0.0,5
C=C(C)Cn1c(C)cc(C)c(S(=O)(=O)c2cccc(C)c2)c1=O,0.68,0.9,.,-0.4,3.9,-0.2,-4
N=c1c2c3c(sc2nc2n1CCC2)CCCC3,0.69,-7.0,?,-0.3,-2.2,3.3,-5

# Compound profiles, as listed above. Order of screens: E coli growth | LANA-H2B inh | Vif A3G | A1 inh | HNF4A DNA FP | UCH37 inh | Beta2AR agonist
# `O=c1oc2cc(OCc3ccc([N+](=O)[O-])cc3)ccc2c2c1CCCC2` in the list: 0.78 | 0.7 | 0% | -1.5 | 1.8 | 0.0 | 5
# `COc1cc2nc(C3CC3)n(NC(=O)c3ccc(F)cc3)c(=O)c2cc1OC` in the list: 0.68 | -6.7 | ? | 0.0 | -2.6 | 4.0 | -7
# `N=c1c2c3c(sc2nc2n1CCC2)CCCC3` in the list: 0.69 | -7.0 | ? | -0.3 | -2.2 | 3.3 | -5

# Further records.
SMILES,E coli growth,LANA-H2B inh,Vif A3G,A1 inh,HNF4A DNA FP,UCH37 inh,Beta2AR agonist
COc1nc(=O)n(C2CCCO2)cc1C (stereo unspecified),.,.,-8%,.,4.2,.,5
COC(=O)c1ccc(NCC(=O)Nc2cc(C)cc(C)c2)cc1,0.71,-5.1,.,0.8,4.2,4.0,0
O=C(CCCCCN1C(=O)c2ccccc2C1=O)Nc1ccc2c(c1)OCCO2,0.74,4.6,3%,-0.5,2.8,3.2,-1
O=C(NCc1ccccc1)c1ccc2c(=O)n(CC3CCCO3)c(=S)[nH]c2c1 (stereo unspecified),0.76,-1.2,0%,-0.1,0.0,1.2,-1
CCSc1nnc2ccc(-c3ccc(OC)c(OC)c3)nn12,.,2.5,.,1.1,3.5,.,0
O=C(CCNS(=O)(=O)c1ccc(Br)s1)NCc1ccc2c(c1)OCO2,0.67,4.5,-6%,-0.7,-2.2,2.2,7
Brc1cnc(N2CCCC2)nc1N1CCOCC1,0.69,0.4,6%,0.2,3.2,3.8,-7
Clc1cccc(N/N=C(\Cc2nc3ccccc3[nH]2)c2ccccc2)c1,.,.,.,0.0,0.6,.,-5
COc1ccc(C(=O)N/C(=C\c2ccc(OC)c(OC)c2)C(=O)N2CCCCC2)cc1,0.66,0.2,.,0.6,-2.4,2.0,1
Cc1cc(C)cc(OCC(=O)Nc2nc3ccc([N+](=O)[O-])cc3s2)c1,0.64,1.2,-1%,0.2,2.2,2.8,19
COc1ccc(N(CC(=O)Nc2cccnc2)S(C)(=O)=O)cc1,0.71,9.3,.,0.4,-0.8,4.8,-3
CCC(=O)NC(=S)NNC(=O)c1ccc(O)cc1,0.6,7.2,11%,1.0,2.0,4.2,9
Cc1cccc(N2CCC(NCc3c(C(=O)N4CCCCC4)nc4c(C)cccn34)CC2)c1,0.67,-0.7,?,0.4,4.8,0.4,-12
COc1ccc(NC(=O)COC(=O)COc2cccc3c2OC(C)(C)C3)cc1,0.68,2.7,-4%,0.1,-2.4,-0.1,4
Cc1ccc2c(c1)COc1c3ccc(C(=O)NCCO)cc3nn1-2,0.7,-0.6,.,-3.1,-3.0,-27,-12
O=C(c1cc(-c2cccs2)nc2ccccc12)N1CCN(S(=O)(=O)c2cccc(F)c2)CC1,0.73,2.0,-25%,0.1,3.0,-7.3,5
CC(C)N1CC(C(=O)Nc2cc(Cl)cc(Cl)c2)CC1=O (stereo unspecified),0.68,4.8,-4%,-1.2,-0.5,4.7,1
O=[N+]([O-])c1cccc(/C=N/NC2=NCCCCC2)c1,.,-1.4,11%,-0.2,-0.7,.,0
Nc1ccc(Cc2ccc([N+](=O)[O-])cc2)cc1,0.59,.,-4%,.,2.5,1.6,-3
O=C(N/N=C/C=C/c1ccco1)c1ccccc1Cl,.,-2.7,.,-0.4,1.0,.,3
CC(OC(=O)Cn1cnc2ccccc2c1=O)C(=O)N(C)c1ccccc1 (stereo unspecified),0.69,9.3,4%,-0.1,1.7,1.9,-10
CCCn1c(O)c(N=NC(=O)c2ccco2)c2ccccc21,0.7,0.5,.,0.4,-0.1,13,-25
CCCCC1CCC(c2nc(-c3cccnc3)no2)CC1 (stereo unspecified),0.71,-2.5,-4%,0.9,1.2,1.4,-7
Cc1ccc(O)c(NC(=O)c2cccc(S(=O)(=O)N3CCCCC3)c2)c1,0.75,-2.6,2%,-2.4,3.0,2.2,-61
Cc1cccc(CCNC(=O)C2CCN(S(=O)(=O)c3cccc4nsnc34)CC2)c1,0.69,-2.4,4%,1.1,-1.1,3.6,2
COc1ccc(/C=N/N2CCN(C)CC2)cc1O,.,-2.3,23%,2.5,-0.8,.,1
COc1ccccc1CN(C)c1nnnn1-c1ccccc1,0.64,3.8,-9%,-0.4,2.3,5.9,3
Cc1cccc(C(=O)N=C2SC3CS(=O)(=O)CC3N2c2ccccc2)c1 (stereo unspecified),0.65,.,3%,.,1.5,2.7,1
FC(F)(F)c1cnc(N/N=C/c2ccncc2)c(Cl)c1,.,-1.6,30%,0.9,1.8,.,-15
Cc1ccccc1Cn1cc(/C=N/n2cnnc2)c2ccccc21,.,2.5,-2%,0.8,3.6,.,-1
O=C1c2ccc(-c3nc4ccccc4o3)cc2C(=O)N1Cc1ccccc1,.,.,-3%,.,1.2,.,-13
CN(C(=O)CSc1nnc(C2CC2)n1C1CC1)C1(C#N)CCCCC1,0.64,4.0,.,-0.2,-1.6,-0.5,3

# Bioassay records: PubChem BioAssay, several laboratories
